Screens: PubChem, Broad Institute
PD-1 reversal: reversal of PD-1 mediated T-cell inhibition; 29,000 tested, under 10 active; primary human CD4 T cells, PD-L1 beads, CellTiter-Glo 96 h; activation, % (test concentration not listed);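 active = replicate mean of 50% or more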;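 note: 0% = median vehicle wells and 100% = positive control; 100 nL library stock added to about 50 µL; numbers are from one replicate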
YB-1 expr inh: YB-1 expression inhibition; AID 434959; delta delta Cp (YB-1 minus CDIP) (test concentration not listed); hit rate 0.37% among 30,000; U2OS, qRT-PCR YB-1 vs CDIP delta delta Cp, 16 h; hits give high values; zero = DMSO, each unit about twofold;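 active = delta delta Cp rounded down to an integer at or above 3, about 3 SD of DMSO wells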;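 note: higher means less YB-1 transcript or more CDIP transcript relative to DMSO; stock transfer was 100 nL into about 100 µL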
Hedgehog inh: blocks Sonic Hedgehog signaling; Shh-LIGHT2 Gli-luciferase reporter, 30 h; inhibition, % (test concentration not listed); hit rate 2.1% among 22,000; AID 2313;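 active = replicate mean of 65% or more; inconclusive = mean lower but half the replicates past it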;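 note: pathway switched on by Shh-conditioned medium diluted 1 in 25 in low serum; 100 nL library stock added to about 40 µL; 0% = median of neutral wells and 100% = positive control level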
MITF inh: inhibitors of MITF; TRPM1 promoter luciferase, luminescence, 24 h; inhibition, % (concentration not given with the values); hit rate 0.28% among 37,000; AID 2240;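 active = most replicates at 85% or more, or half of them and the mean; inconclusive = half reach 85% but not the mean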;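 note: human melanocyte line stably carrying TRPM1 promoter luciferase reporter; 0% = vehicle wells and 100% = a positive control; the first replicate is given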
* hit, by the source's call. An excerpt, so the mix of outcomes need not match the whole.

`C[C@H](CO)N1C[C@H](C)[C@H](CN(C)Cc2ccccc2)Oc2ccc(NS(=O)(=O)c3cn(C)cn3)cc2C1=O` gave PD-1 reversal 1.2, YB-1 expr inh 0.3 and MITF inh 4.
`Cn1c(=O)c2c(nc(NCCO)n2C)n(C)c1=O` gave PD-1 reversal 0.8 and MITF inh -4.
For COc1ccc(-c2noc(CN(C(=O)c3ccc(C)c([N+](=O)[O-])c3)C(C)C)n2)cc1 the results were PD-1 reversal -0.3 and MITF inh 17.
For Nc1ccc(S(=O)(=O)Nc2ccnn2-c2ccccc2)cc1 the results were YB-1 expr inh 0.019, Hedgehog inh -10 and MITF inh 8.
O=C(Cn1cnc2scc(-c3ccccc3)c2c1=O)Nc1ccc(F)cc1 was read as PD-1 reversal 0.8 and MITF inh 13.
`C[C@H]1CN([C@@H](C)CO)C(=O)Cc2cc(NC(=O)Cc3cn(C)c4ccccc34)ccc2O[C@H]1CN(C)S(=O)(=O)c1ccccc1` gave PD-1 reversal 0.3, YB-1 expr inh -0.58 and MITF inh 9.
Screening COc1ccc(OC)c(NC(=O)C2=C(C)NC(=O)NC2c2ccc(OC)cc2OC)c1 (stereo not drawn) returned PD-1 reversal -2.3 and MITF inh -22.
`CNC[C@H]1Oc2ccc(NC(=O)CCC(F)(F)F)cc2C(=O)N([C@@H](C)CO)C[C@H]1C` gave PD-1 reversal 0.5, YB-1 expr inh -0.42, Hedgehog inh -3 and MITF inh -7.
Screening Clc1ccc(C2=NN=C(N3CCCC3)SC2)cc1 returned PD-1 reversal -5.2, YB-1 expr inh -0.4 and MITF inh 81.
`CCOC(=O)c1c(NC(=O)CSc2nc(C)cc(C)n2)sc2c1CCCC2` gave PD-1 reversal 0.3 and MITF inh 14.
CC(=O)NC(NCc1ccccc1)(C(F)(F)F)C(F)(F)F was read as PD-1 reversal 0.0, YB-1 expr inh 0.12, Hedgehog inh -13 and MITF inh 4.
Screening Cc1noc(C)c1NC(=O)N(C)C[C@H]1Oc2c(NS(=O)(=O)c3ccccc3)cccc2C(=O)N([C@@H](C)CO)C[C@@H]1C returned PD-1 reversal 3.1, YB-1 expr inh -0.22, Hedgehog inh -31 and MITF inh -5.
C[C@H]1CN([C@@H](C)CO)C(=O)Cc2cc(NS(=O)(=O)c3ccc(F)cc3)ccc2O[C@@H]1CN(C)C(=O)Nc1ccccc1 was read as YB-1 expr inh 0.67, Hedgehog inh -19 and MITF inh -28.
Screening O=S(=O)(c1cccc2cccnc12)N(CCO)CCO returned PD-1 reversal 2.0 and MITF inh -3.
For COc1ccc(Nc2nc(N)nc(CSc3nccc(C)n3)n2)cc1 the results were PD-1 reversal -0.3 and MITF inh -15.
Screening C[C@H](CO)N1C[C@H](C)[C@H](CN(C)S(=O)(=O)c2cn(C)cn2)Oc2ccc(NC(=O)Nc3ccc(C(F)(F)F)cc3)cc2CC1=O returned YB-1 expr inh -0.00094, Hedgehog inh -10 and MITF inh 10.
C[C@@H]1CN([C@H](C)CO)C(=O)c2cc(NC(=O)Nc3ccc(C(F)(F)F)cc3)ccc2O[C@H]1CN(C)S(=O)(=O)c1cn(C)cn1 was read as PD-1 reversal -1.1, YB-1 expr inh 0.2 and MITF inh -12.
Screening Cc1ccc(S(=O)(=O)Nc2cccc3c2O[C@H](CN(C)S(=O)(=O)c2cccs2)[C@@H](C)CN([C@H](C)CO)C3=O)cc1 returned PD-1 reversal 1.3, YB-1 expr inh 0.12, Hedgehog inh -13 and MITF inh -10.
`O=C(Nc1ccc(Cl)cc1C(=O)NCc1ccco1)c1ccco1` gave PD-1 reversal -0.3 and MITF inh -14.
`CNC(=O)c1c(N)sc2c1CCCCC2` gave PD-1 reversal -1.2, YB-1 expr inh -0.59, Hedgehog inh -23 and MITF inh -10.

Grouped by structure, the compounds so far with a thiophene ring, fused or not.
O=C(Cn1cnc2scc(-c3ccccc3)c2c1=O)Nc1ccc(F)cc1 was read as PD-1 reversal 0.8 and MITF inh 13.
`CCOC(=O)c1c(NC(=O)CSc2nc(C)cc(C)n2)sc2c1CCCC2` gave PD-1 reversal 0.3 and MITF inh 14.
Screening Cc1ccc(S(=O)(=O)Nc2cccc3c2O[C@H](CN(C)S(=O)(=O)c2cccs2)[C@@H](C)CN([C@H](C)CO)C3=O)cc1 returned PD-1 reversal 1.3, YB-1 expr inh 0.12, Hedgehog inh -13 and MITF inh -10.
`CNC(=O)c1c(N)sc2c1CCCCC2` gave PD-1 reversal -1.2, YB-1 expr inh -0.59, Hedgehog inh -23 and MITF inh -10.

Back to the main list with the two entries that preceded the break.
`O=C(Nc1ccc(Cl)cc1C(=O)NCc1ccco1)c1ccco1` gave PD-1 reversal -0.3 and MITF inh -14.
`CNC(=O)c1c(N)sc2c1CCCCC2` gave PD-1 reversal -1.2, YB-1 expr inh -0.59, Hedgehog inh -23 and MITF inh -10.
`Cc1noc(C)c1S(=O)(=O)Nc1ccc2c(c1)C(=O)N([C@@H](C)CO)C[C@H](C)[C@H](CN(C)Cc1ccccc1)O2` gave PD-1 reversal 3.6, YB-1 expr inh -0.26 and MITF inh 0.
Cn1c2ccccc2c2nnc(SCC(=O)c3ccc(Cl)cc3)nc21 was read as PD-1 reversal 0.9 and MITF inh 33.
`Cc1ccc(S(=O)(=O)Nc2ccc3c(c2)CC(=O)N([C@H](C)CO)C[C@@H](C)[C@H](CN(C)Cc2ccc(Cl)c(Cl)c2)O3)cc1` gave PD-1 reversal 0.0, YB-1 expr inh 0.16, Hedgehog inh -16 and MITF inh 0.
Screening Cc1noc(C)c1S(=O)(=O)N(C)C[C@H]1OCCCC[C@@H](C)Oc2ccc(NS(C)(=O)=O)cc2C(=O)N([C@H](C)CO)C[C@@H]1C returned PD-1 reversal 0.6, YB-1 expr inh -0.55 and MITF inh -4.
For Cc1cc(C(=O)Nc2cccc3c2O[C@@H](CN(C)C(=O)NC2CCCCC2)[C@H](C)CN([C@H](C)CO)C3=O)n(C)n1 the results were PD-1 reversal 0.1, YB-1 expr inh 0.25, Hedgehog inh 2 and MITF inh -7.
Screening Cc1noc(C)c1NC(=O)Nc1cccc2c1O[C@@H](CN(C)C(=O)Nc1ccc(F)cc1)[C@@H](C)CN([C@@H](C)CO)C2=O returned PD-1 reversal 0.9, YB-1 expr inh -0.81, Hedgehog inh -43 and MITF inh -2.
Screening C[C@@H]1CN([C@@H](C)CO)C(=O)c2cccc(NC(=O)c3ccncc3)c2O[C@H]1CN(C)Cc1ccncc1 returned PD-1 reversal -0.8, YB-1 expr inh -0.22, Hedgehog inh -11 and MITF inh 0.
For COc1ccc(NC(=O)N(C)C[C@@H]2Oc3c(NC(=O)c4cc(C)nn4C)cccc3C(=O)N([C@@H](C)CO)C[C@@H]2C)cc1 the results were PD-1 reversal 0.9, YB-1 expr inh 0.082, Hedgehog inh -37 and MITF inh 4.
Cc1cccc(OCCCn2c(CO)nc3ccccc32)c1 was read as PD-1 reversal 0.2 and MITF inh -63.
For COc1c(O[C@@H]2O[C@H](C(=O)O)[C@@H](O)[C@H](O)[C@H]2O)cc2oc(-c3ccccc3)cc(=O)c2c1O the results were YB-1 expr inh 0.87 and Hedgehog inh -11.
Screening C[C@@H]1CCCCO[C@@H](CN(C)S(=O)(=O)c2ccc(F)cc2)[C@@H](C)CN([C@H](C)CO)C(=O)c2cc(NS(=O)(=O)c3ccc(F)cc3)ccc2O1 returned PD-1 reversal -10, YB-1 expr inh 0.3, Hedgehog inh -16 and MITF inh 46.
`Cc1noc(C)c1S(=O)(=O)Nc1ccc2c(c1)C(=O)N([C@H](C)CO)C[C@H](C)[C@@H](CN(C)S(=O)(=O)c1c(C)noc1C)OCCCC[C@@H](C)O2` gave YB-1 expr inh -0.15, Hedgehog inh 20 and MITF inh -3.
Screening CNC[C@H]1Oc2ccc(NS(=O)(=O)c3ccc(C)cc3)cc2C(=O)N([C@@H](C)CO)C[C@@H]1C returned YB-1 expr inh 0.15, Hedgehog inh -82 and MITF inh -8.
COc1ccc(OC)c(C(=O)CSc2nnc(-c3ccccn3)n2-c2ccc(C)cc2)c1 was read as PD-1 reversal 2.0 and MITF inh 5.
Screening COc1ccc(CN(C)C[C@@H]2Oc3ccc(NC(=O)C4CC4)cc3C(=O)N([C@@H](C)CO)C[C@@H]2C)cc1 returned PD-1 reversal 0.1, YB-1 expr inh 0.083, Hedgehog inh -13 and MITF inh -1.
Screening Cc1noc(C)c1NC(=O)Nc1cccc2c1O[C@H](CN(C)Cc1ccccc1)[C@H](C)CN([C@H](C)CO)C2=O returned PD-1 reversal 1.1, YB-1 expr inh -0.21, Hedgehog inh -22 and MITF inh 1.
Cc1ccc(CN(CC(N)=O)S(=O)(=O)c2ccc(Cl)cc2)cc1 was read as PD-1 reversal 0.3 and MITF inh -10.
`C[C@H](CO)N1C[C@H](C)[C@H](CN(C)CC2CC2)Oc2ccc(NS(=O)(=O)c3ccc(Cl)cc3)cc2CC1=O` gave PD-1 reversal 1.9, YB-1 expr inh 0.27, Hedgehog inh -1 and MITF inh -4.
O=C(CC1NC(=O)NC1=O)Nc1cccc2ccccc12 (stereo not drawn) was read as PD-1 reversal -0.5 and MITF inh -21.
Screening COc1ccc(CN(C)C[C@@H]2Oc3ccc(NC(=O)Cc4cn(C)c5ccccc45)cc3C(=O)N([C@@H](C)CO)C[C@@H]2C)cc1 returned PD-1 reversal -0.5, YB-1 expr inh 0.33, Hedgehog inh 15 and MITF inh 9.
Screening CCOC(=O)c1ccc(NC(=O)CSc2nc3cc4ccccc4cc3[nH]2)cc1 returned PD-1 reversal -5.6 and MITF inh -9.
C[C@@H]1CN([C@@H](C)CO)C(=O)Cc2cc(NC(=O)c3ccncc3)ccc2O[C@@H]1CN(C)Cc1ccc(Cl)c(Cl)c1 was read as YB-1 expr inh 0.23, Hedgehog inh inconclusive and MITF inh 33.
For CCCc1cc(=O)[nH]c(Nc2nc(C)c3ccc(OC)cc3n2)n1 the results were PD-1 reversal -1.9 and MITF inh 24.
`CC(=O)N=c1sc(S(N)(=O)=O)nn1C` gave YB-1 expr inh 0.49, Hedgehog inh -40 and MITF inh 1.
Screening C[C@@H]1CCCCO[C@H](CN(C)C(=O)CCC(F)(F)F)[C@@H](C)CN([C@H](C)CO)C(=O)c2cc(NC(=O)CCC(F)(F)F)ccc2O1 returned YB-1 expr inh -0.44, Hedgehog inh -10 and MITF inh -6.
Screening Cc1nnc(SCC(=O)Nc2ccc(C#N)cc2)s1 returned PD-1 reversal 1.7 and MITF inh -10.
Cc1c(C)c(C)c2[nH]c(SCc3nc(-c4ccc(Cl)cc4)no3)nc2c1C was read as PD-1 reversal -1.2, YB-1 expr inh -0.48, Hedgehog inh 22 and MITF inh 11.
For C[C@H]1CN([C@@H](C)CO)C(=O)Cc2cc(N(C)C)ccc2O[C@@H]1CN(C)S(=O)(=O)c1cccs1 the results were YB-1 expr inh -0.17 and MITF inh -21.
Screening O=C(O)c1cc(=O)c2c(O)cccc2o1 returned PD-1 reversal 0.1, YB-1 expr inh -0.038, Hedgehog inh -10 and MITF inh -2.
`C[C@H](CO)N1C[C@H](C)[C@@H](CN(C)C(=O)Nc2ccc(C(F)(F)F)cc2)Oc2c(NC(=O)Nc3ccccc3)cccc2C1=O` gave PD-1 reversal -1.9, YB-1 expr inh -0.38, Hedgehog inh -36 and MITF inh -6.
For C[C@@H]1CCCCO[C@@H](CN(C)C(=O)Nc2ccccc2)[C@@H](C)CN([C@H](C)CO)C(=O)c2cc(NC(=O)C3CCCCC3)ccc2O1 the results were YB-1 expr inh 0.12, Hedgehog inh 36 and MITF inh 7.
`O=C(O)CCC(=O)N1N=C(c2c(-c3ccccc3)c3cc(Cl)ccc3[nH]c2=O)CC1c1ccccn1` (stereo not drawn) gave PD-1 reversal 0.1 and MITF inh -4.
`CC(C)NC(=O)N(C)C[C@H]1Oc2ccc(NS(=O)(=O)c3ccc(F)cc3)cc2CC(=O)N([C@@H](C)CO)C[C@H]1C` gave PD-1 reversal -0.9, YB-1 expr inh -0.039, Hedgehog inh inconclusive and MITF inh 0.
`C[C@H](CO)N1C[C@H](C)[C@H](CN(C)Cc2ccc3c(c2)OCO3)Oc2c(NC(=O)c3ccc(-c4nccs4)cc3)cccc2C1=O` gave PD-1 reversal -0.8, YB-1 expr inh 0.028, Hedgehog inh -5 and MITF inh -7.
For Cc1noc(C)c1NC(=O)Nc1ccc2c(c1)C(=O)N([C@H](C)CO)C[C@@H](C)[C@@H](CN(C)S(=O)(=O)c1ccccc1)O2 the results were PD-1 reversal 0.3, YB-1 expr inh 0.39, Hedgehog inh 9 and MITF inh -4.
C[C@@H]1CN([C@H](C)CO)C(=O)c2cccc(NS(=O)(=O)c3ccccc3)c2O[C@@H]1CN(C)C(=O)NC1CCCCC1 was read as YB-1 expr inh -0.14, Hedgehog inh -2 and MITF inh 2.
Screening C[C@H]1CN([C@@H](C)CO)C(=O)Cc2cc(NS(=O)(=O)c3cccs3)ccc2O[C@H]1CN(C)S(C)(=O)=O returned PD-1 reversal 0.3, YB-1 expr inh -0.02 and MITF inh -5.
`C[C@@H]1CN([C@@H](C)CO)C(=O)c2cccc(NC(=O)C3CCOCC3)c2O[C@@H]1CN(C)C(=O)Nc1cccc2ccccc12` gave PD-1 reversal 0.5, YB-1 expr inh -0.023, Hedgehog inh 10 and MITF inh -10.
